# Compound activity: PubChem, National Center for Advancing Translational Sciences (NCATS)
# N370S GC: N370S glucocerebrosidase modulation, Gaucher chaperone candidate. actives 0.092% (n = 330,000). Potency, µM (top dose mostly 59.4 µM), for the others: at the highest dose activity change, negative = inhibition, usual class: inhibitors. AID 2101. P04062. N370S GC spleen homogenate, 4MU-glucoside fluorescence;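 further: 0% = full enzyme activity and -100% = no enzyme basal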
# TDP1 inh: inhibitors of human tyrosyl-DNA phosphodiesterase TDP1 | Q9NUW8 | recombinant TDP1, AlphaScreen DNA substrate cleavage | Potency, µM (top dose mostly 130 µM), for the others: at the top dose activity change, negative = inhibition, hits mostly inhibitors | actives 0.28% (n = 350,000); further: nearly all actives have a fitted effect of over 40% in size
# Target sequence (Q9NUW8 whole entry, looked up): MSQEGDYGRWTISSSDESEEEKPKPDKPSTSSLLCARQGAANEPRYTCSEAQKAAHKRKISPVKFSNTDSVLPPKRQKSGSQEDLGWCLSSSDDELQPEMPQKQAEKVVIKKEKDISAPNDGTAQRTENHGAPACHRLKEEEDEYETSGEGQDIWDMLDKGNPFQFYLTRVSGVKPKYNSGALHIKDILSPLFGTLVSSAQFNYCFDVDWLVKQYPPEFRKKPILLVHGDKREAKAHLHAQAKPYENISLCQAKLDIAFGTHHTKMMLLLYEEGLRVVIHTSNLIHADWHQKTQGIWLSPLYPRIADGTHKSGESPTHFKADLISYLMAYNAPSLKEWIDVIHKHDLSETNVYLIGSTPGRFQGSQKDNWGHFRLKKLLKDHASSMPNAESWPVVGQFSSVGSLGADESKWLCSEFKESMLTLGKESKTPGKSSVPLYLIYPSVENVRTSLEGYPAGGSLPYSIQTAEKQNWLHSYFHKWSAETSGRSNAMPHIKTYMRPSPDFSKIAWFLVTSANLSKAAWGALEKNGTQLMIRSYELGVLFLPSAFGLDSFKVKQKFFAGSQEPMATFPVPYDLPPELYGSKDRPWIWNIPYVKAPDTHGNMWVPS
#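 Tdp1 1 nM final; 15 min RT w/ cpd; substrate 15 nM, 5 min; beads 10 ug/ml, 10 min; AlphaScreen read. Neg ctrl: no enzyme.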
# * marks the source's active call; other numbers are inactive results; . = not tested or not shown; [ ] = dose if it differs, or a comment. The call rests on the fitted dose curve; in most records, active means well fitted curve in the direction sought with a large enough effect; inconclusive means small, poorly fitted or top-dose-only effect, or another doubt; inactive means no such curve, though single readings can be large; an effect the other way counts as inactive or inconclusive. Unless noted, on the % scale 0 is the no-effect control and ±100 the full control effect; potency means the concentration at half of the fitted maximal effect. This is a subset, and most or all hits are left out here.
Molecule	N370S GC	TDP1 inh
COc1cc(NC(=O)C(C)C)ccc1NC(=O)c1cc2ccccc2o1	-4%	.
Nn1c(Cc2ccccc2F)nnc1SCn1nnc2ccccc2c1=O	-7%	4%
COc1ccc(OCC2c3cc(OC)c(OC)cc3CCN2C(=O)C(C)C)cc1 (stereo unspecified)	4%	2%
NS(=O)(=O)c1cc(C(=O)NCCOc2ccccc2)c(Cl)cc1Cl	1%	-8%
O=C(Cn1ncc(Cl)c(Cl)c1=O)N1CCc2ccccc21	4%	6%
Cc1nn(-c2ccccc2)c(=O)c2noc(C)c12	-3%	2%
O=C(O)CSCc1nc2scc(-c3ccccc3)c2c(=O)[nH]1	-4%	-1%
COc1ccc(NC(=O)COc2ccccc2Cc2ccccc2)cn1	.	-6%
C=C(C)c1cccc(C(C)(C)NC(=O)N2CCCC(C(N)=O)C2)c1 (stereo unspecified)	3%	-2%
Cc1ccc(S(=O)(=O)N2CC=C(C(=O)NC3CCCC3)CC2)cc1	-11%	6%
CC(C)(CO)Nc1ccc([N+](=O)[O-])cc1[N+](=O)[O-]	2%	5%
Cc1ccc(C(=O)N2CCN(S(=O)(=O)N3CCOCC3)CC2)cc1	-16%	2%

# In the list so far, 3 have a halogen:
Molecule	N370S GC	TDP1 inh
Nn1c(Cc2ccccc2F)nnc1SCn1nnc2ccccc2c1=O	-7%	4%
NS(=O)(=O)c1cc(C(=O)NCCOc2ccccc2)c(Cl)cc1Cl	1%	-8%
O=C(Cn1ncc(Cl)c(Cl)c1=O)N1CCc2ccccc21	4%	6%

# (list continues)
Molecule	N370S GC	TDP1 inh
CCOc1ccccc1/C=N/NC(=O)c1cccc(Cl)c1	18%	-1%
Cc1ccc(N(C(=O)c2snc(C(N)=O)c2N)C(C(=O)NCC2CCCO2)c2c[nH]c3ccccc23)cc1 (stereo unspecified)	-4%	.
Cc1cccn2cc(COc3ccc(-c4ccccc4)cc3)nc12	-5%	2%
Cc1nn(-c2ccccc2)c(Cl)c1/C=C(\C#N)C(=O)NC(C)C	3%	-1%
CCc1ccccc1N(C(=O)c1snc(C(N)=O)c1N)C(C(=O)NCC1CCCO1)c1c[nH]c2ccccc12 (stereo unspecified)	-18%	11%
CCOC(=O)c1c(C)[nH]c(C(=O)CSc2nnnn2-c2ccc(C)cc2)c1C	10%	0%
CCOC(=O)c1c(S(=O)(=O)NCC(=O)Nc2ccccc2OC)c(C)n(C)c1C	-4%	4%
Cn1cnc([N+](=O)[O-])c1SCCO	-7%	4%
C/C(CC(=O)Nc1cc(Cl)ccc1Cl)=N\NC(=O)c1ccccc1Br	-4%	2%
CN1C(=O)C2(NC(=O)c3ccccc3N2C)c2ccccc21 (stereo unspecified)	3%	.
CCOC(=O)c1sc(=NC(=O)c2ccccc2Br)n(C)c1C	-1%	2%
Cc1ccc2onc(CC(=O)O)c2c1	8%	-3%
CNCCC=C1c2ccccc2CCc2ccccc21	6%	-3%
Cc1csc(NC(=O)CCc2c(C)nc3cc(-c4ccc(Cl)cc4)nn3c2C)n1	9%	-3%
CC(CCc1ccccc1)NC(=O)COC(=O)CC1CC2CCC1C2 (stereo unspecified)	6%	0%
Cc1cc(=O)oc2c(C)c(OCC(=O)N3CCN(c4ccc(F)cc4)CC3)ccc12	-3%	7%
COCCCN1C(=O)C(=O)/C(=C(/O)c2ccc(OC)cc2)C1c1cccc(OC)c1 (stereo unspecified)	0%	-2%
NC(N)=NC(N)=NCCc1ccccc1	23%	5%
NS(=O)(=O)c1ccc(CNc2ccc3ccccc3n2)cc1	-4%	11%
CC(OC(=O)C1=Cc2ccccc2OC1)C(=O)NC1CCCC1 (stereo unspecified)	-3%	-3%
CCCc1cc(=O)oc2cc(C)cc(O)c12	12%	5%
Cc1cccc(Oc2c(C=O)c3ccccc3n2C)c1	9%	3%
O=C(NC12CCC(O)C(SC1)/C2=N/O)c1ccccc1 (stereo unspecified)	9%	12%
COC(=O)C(Cc1ccccc1)NC(=O)CCNC(=O)c1ccc(Br)cc1 (stereo unspecified)	-20%	-10%
CC1Cc2cc(/C=C3/SC(N4CCC(C(N)=O)CC4)=NC3=O)ccc2O1 (stereo unspecified)	-7%	.
Nc1c(Cl)ncnc1N1CCN(c2ncnc(Cl)c2N)CC1	16%	5%
COc1ccc(N2CCN(S(=O)(=O)c3ccc(Br)s3)CC2)cc1	-2%	-6%
CC(=O)Nc1ccc(NC(=O)c2ccc(NS(=O)(=O)c3cc(C(C)(C)C)ccc3C)cc2)cc1	5%	1%
CCN1CCN(c2sc(S(C)(=O)=O)nc2S(=O)(=O)c2ccc(C)cc2)CC1	-13%	2%
CN(C)/C=N/C(=S)Nc1cc(Cl)cc(Cl)c1	-2%	0%
CCCCn1c(=NC(=O)c2cccnc2)c(C#N)cc2c(=O)n3cccc(C)c3nc21	19%	-2%
COc1ccc(C2C(C(N)=O)=C(C)Nc3nc(-c4cccc(Cl)c4)nn32)cc1OC (stereo unspecified)	9%	3%
Cn1c(N)c(C(=O)COC(=O)Cc2ccc(Br)cc2)c(=O)n(C)c1=O	.	0%
COc1ccc(N2C(=O)C(O)C2c2ccc(C)cc2)cc1 (stereo unspecified)	7%	3%
COc1ccc(OC)c(S(=O)(=O)Nc2c(C)nn(C)c2C)c1	.	0%
CCN1CCN(c2ccc(NC(=O)Cc3ccccc3)cc2)CC1	-11%	4%
C/C(=N\NS(=O)(=O)c1ccc([N+](=O)[O-])cc1)c1cccs1	20%	3%
Cc1c(-c2cc(C(=O)O)no2)cnn1C	4%	-3%
C=CCOC(=O)C1=C(C)OC(N)=C(C#N)C1c1ccco1 (stereo unspecified)	1%	.
CC(C)(C)c1ccc(S(=O)(=O)NCc2ccc(C(=O)N3CCCC3)cc2)cc1	-3%	4%
C=CCn1c(SCC(=O)NNC(=S)Nc2ccccc2)nnc1-c1ccccc1	16%	.
COc1ccc(N(C(=O)CNC(=O)c2ccco2)C(C(=O)NCC2CCCO2)c2ccccc2)cc1 (stereo unspecified)	-6%	9%
CCOC(=O)[C@H](CCc1ccccc1)N[C@H]1CCc2ccccc2N(CC(=O)O)C1=O	-6%	9%
O=C(Nc1nnc(SCC(=O)N2CCCc3ccccc32)s1)c1ccc2ccccc2c1	-30%	5%
O=C(c1ccccc1-c1nc2ccccc2[nH]1)N1CCOCC1	5%	7%
Cc1cnc(=O)[nH]c1SCc1cccc([N+](=O)[O-])c1	-3%	8%
C/C(=N\Nc1ccccc1)c1cccc(N)c1	-11%	6%
Cc1ccc(Nc2oc(C)nc2C#N)cc1	1%	3%
Cc1ccc(C)c(OCCCC(=O)O)c1	-3%	-2%
CCCCn1nnnc1SCC(=O)Nc1sc2c(c1C#N)CCCC2	28%	1%
CCC(C)(C)n1nnnc1C(c1ccccc1OC)N1CCSCC1 (stereo unspecified)	0%	4%
CC(C)Nc1cc(C(C)(C)C)nc2c(-c3ccccc3)cnn12	2%	1%
COc1ccc(CCCC(=O)N/N=C\c2cccs2)cc1	11%	2%
Cc1ccc(S(=O)(=O)c2ccc(Cl)cc2)cc1S(=O)(=O)N(C)CC(=O)O	0%	0%
Cn1nc(C(=O)Nc2ccc(Cl)cc2)cc1C(=O)Nc1ccc(Cl)cc1	4%	.
COc1ccccc1C(=O)NC(=O)OCCn1c(C)cnc1[N+](=O)[O-]	-9%	3%
CN(C)S(=O)(=O)c1ccc(Cl)c(NC(=O)CSc2nnnn2-c2ccc(O)cc2)c1	6%	2%
Cc1[nH]c2ccccc2c1C(=O)CN1CCCC1	7%[2.35 µM]	6%
CCOc1ccc(C(=O)OCC(=O)NCCCc2ccccc2)cc1	-2%	.
CCOc1ccccc1NC(=O)c1cccc(N2C(=O)CCC2=O)c1	-6%	4%[56.1 µM]

# Continuation:
Molecule	N370S GC	TDP1 inh
COc1cc2c(cc1OC)CN(CC(=O)NC(=O)NC(C)(C)C)CC2	-1%	6%
COc1cc(F)c(S(=O)(=O)N2CCOc3ccccc32)cc1OC	-16%	.
O=C(NCc1ccncc1)c1cc2ccccc2nc1Cl	5%	7%
CN(CC(=O)Nc1ccc(Cl)cc1)C(=O)CCc1ccccc1	-19%	-3%
O=C(O)C(c1ccccc1)N1CCCC1 (stereo unspecified)	-15%	0%
CC(=O)c1c(C)[nH]c(C(=O)Nc2ccc(Cl)c(S(=O)(=O)N3CCOCC3)c2)c1C	-17%	11%
COc1ccc(CN2CCOCCOCCOCCOCC2)cc1	-3%	0%
CCCNc1nc(=S)n(-c2ccccc2)c(C)c1C(C)=O	-1%	-1%
COc1cccc(CN2CCN(CCCc3ccccc3)C(CCO)C2)c1OC (stereo unspecified)	-3%	.
CC(C)(C)OC(=O)CNC(=O)c1nc[nH]c1C(=O)N1CCNCC1	-6%	-2%
CCOC(=O)CC1ON(C)C(=O)N1c1ccc(Cl)cc1Cl (stereo unspecified)	-1%	-3%
Cc1cccc(C)c1OCc1cc(C(=O)NCc2cn(C)nc2C)no1	-2%	0%
CCOc1ccc(OCCOCCn2ccnc2)cc1	10%	2%
CCc1ccc(Nc2cc(=O)n(C3CCCCC3)c(=O)[nH]2)cc1	0%	5%
CCCCOc1ccc(C(=O)NCC(=O)NCc2ccccn2)cc1	-15%	0%
COc1ccccc1-c1ccc(SCC(=O)NC2CCCC2)nn1	-2%	.
COc1ccc(NC(=O)N(C)C[C@H]2Oc3ccc(NC(=O)Nc4ccc(C(F)(F)F)cc4)cc3C(=O)N([C@H](C)CO)C[C@@H]2C)cc1	.	2%
C=CCn1c(SCc2cccc(C#N)c2)nnc1-c1ccccc1O	-16%	9%
O=C(NNC(=O)c1cnccc1C(F)(F)F)c1ccc(Cl)cc1	-8%	0%
Cc1cccc(C(=O)N[C@H](C(=O)Nc2ccc3c(c2)OCO3)C(C)C)c1	.	1%
Cc1[nH]c(=O)[nH]c(=O)c1S(=O)(=O)Nc1ccc(F)c([N+](=O)[O-])c1	-15%	.
Cc1cc(NC(=O)CCCn2cnc([N+](=O)[O-])n2)no1	1%	0%
CCOC(=O)c1nnc(-c2ccccc2)o1	4%	-5%
Cc1cc(C)cc(NC(=O)C2C3C=CC4(O3)C2C(=O)N(CCN2CCCCC2)C4C(=O)NC2CCCCC2)c1 (stereo unspecified)	-1%	10%
CCCCCOC(=O)C1=C(C)NC(=O)NC1c1ccc([N+](=O)[O-])cc1 (stereo unspecified)	-7%	.
Cc1ccccc1NC(=O)c1sc(Cl)nc1C	-15%	5%
CC(C)(C)NC(=O)NC(=O)COC(=O)c1cccc(NS(=O)(=O)c2ccc(F)c(F)c2)c1	-4%	8%
CCCCn1nc2cc(C(=O)NCc3ccccc3)ccc2c1OCC	6%	5%
COc1ccc(/C=N/O)cc1COc1ccc(NC(C)=O)cc1	7%	1%[56.1 µM]
Cn1c(SCC(=O)NCC2CCCO2)nnc1-c1c[nH]c2ccccc12 (stereo unspecified)	3%	0%
O=Cc1ccc(OCC(=O)NCC2CCCO2)cc1 (stereo unspecified)	-2%	.
Cc1sc(NC(=O)CN2CCCC2)nc1-c1ccc2c(c1)CCN2C(=O)c1ccc(F)cc1	-24%	.
CCOc1ccc(S(=O)(=O)n2cnc3cc(C)c(C)cc32)cc1	1%	6%
COc1cccc(C(=O)N(c2ccc(OC)cc2OC)C2C=CS(=O)(=O)C2)c1 (stereo unspecified)	-20%	-2%
CC1CC(=O)c2cnc(N)nc2C1 (stereo unspecified)	10%	4%
COc1cccc(Cn2c(=O)c3[nH]cnc3n(-c3ccccc3C)c2=O)c1	-5%	-2%

# Next part (3 carried over from the part before).
Molecule	N370S GC	TDP1 inh
COc1cccc(C(=O)N(c2ccc(OC)cc2OC)C2C=CS(=O)(=O)C2)c1 (stereo unspecified)	-20%	-2%
CC1CC(=O)c2cnc(N)nc2C1 (stereo unspecified)	10%	4%
COc1cccc(Cn2c(=O)c3[nH]cnc3n(-c3ccccc3C)c2=O)c1	-5%	-2%
CCCCNC(=O)c1ccc(C)c(NC(=O)C2=C(C)OCCS2)c1	-5%	.
COc1ccc(C2(C(=O)Nc3ccc(C(=O)N4CCOCC4)cc3)CCOCC2)cc1	-1%	1%
CCCCN(C1CCS(=O)(=O)C1)S(=O)(=O)c1ccc(C(C)C)cc1 (stereo unspecified)	0%	0%
Cc1nnc(SCC(=O)NCCOc2ccc(Cl)cc2)n1-c1ccccc1	-14%	6%
CN(C)/N=C/C=C1\CC/C(=C\c2ccc(Br)cc2)C1=O	14%	3%
Cc1cccc(OC(=O)c2sc3ncn(C)c(=O)c3c2C)c1	0%	0%
CCNC(=O)COC(=O)c1[nH]c(C)c(C(=O)OC)c1C	-3%	0%
CCOC(=O)C(C)On1c(-c2ccccc2)nc2ccc([N+](=O)[O-])cc21 (stereo unspecified)	-12%	7%
O=c1[nH]c(CSc2ncc(C(F)(F)F)cc2Cl)nc2ccccc12	7%	2%
O=C(CSc1nnnn1-c1ccccc1)CC(=O)Nc1ccc(Cl)cc1	10%	0%
CCOC(=O)c1c(C)[nH]c(C(=O)OCc2csc(CC(=O)Nc3ccccc3C)n2)c1C	3%	.
N/C(=N\OC(=O)CCCc1ccccc1)c1ccccn1	7%	4%
